Assay outcomes from PubChem BioAssay.
GALR2 agonist: activates the human galanin receptor 2. O43603. GALR2-expressing cells, agonist activation read-out. activation, %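 (tested at 5 µM)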. 140,000 compounds, 0.48% hits;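 active means above mean plus 3 SD of all compounds, about 5% in these data, not always enough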;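 further: 0% = vehicle buffer wells and 100% = reference agonist at full effect; tested in CHO reporter cells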
INS promoter inh: TRM-6 insulin promoter activity inhibition | inhibition, % at 2 µM | 130,000 compounds, 0.9% hits | AID 1273 | TRM-6 cells (human fetal islet line), insulin promoter-eGFP reporter, imaging; reporter expression induced with tamoxifen;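 active means inhibition above the mean plus 3 SD, with well images judged a real hit on visual review, cut at about 60% in these data, passing the limit was not always enough; inconclusive means inhibition over the cutoff but images rejected on review; inactive means inhibition not above the cutoff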
HSV replic up: HSV replication enhancement. HSV replication augmentation in cells, fold increase. maximum fold increase. 220,000 compounds, 0.005% hits. AID 1956;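 active means peak rise of 1.5-fold or more in the series; inconclusive means self-fluorescent or not available for retest; tested in PC3 cells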;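 further: first round at 10 µM; read as green reporter fluorescence; hits show the peak of a series up to 25 µM; 1 = signal of infected wells without compound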
RGS16-Gao HTS: RGS16-Galphao interaction regulator (human). AID 1441. binding response (% of control), % at 10 µM. 220,000 compounds, 0.38% hits. bead-based flow cytometry RGS16-Galphao binding, fluorescence; actives lie on both sides;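 active means below 25% or above 175%, edge rows of some plates excepted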;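 further: Galphao activated by GDP with aluminum fluoride before binding; 100% = wells without compound and 0% = beads without RGS; some results beyond the cut were filed as inactive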
PKD1 kinase inh: blocks activity of human protein kinase D1. 200,000 compounds, 0.056% hits. PKD1 kinase fluorescence polarization assay. AID 797. Q15139. inhibition, %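 (about 10 µM by stock and volumes)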;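 active means inhibition of 50% or more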;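 further: controls were vehicle for no effect and a reference inhibitor for full effect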
Target sequence (Q15139 whole entry, looked up): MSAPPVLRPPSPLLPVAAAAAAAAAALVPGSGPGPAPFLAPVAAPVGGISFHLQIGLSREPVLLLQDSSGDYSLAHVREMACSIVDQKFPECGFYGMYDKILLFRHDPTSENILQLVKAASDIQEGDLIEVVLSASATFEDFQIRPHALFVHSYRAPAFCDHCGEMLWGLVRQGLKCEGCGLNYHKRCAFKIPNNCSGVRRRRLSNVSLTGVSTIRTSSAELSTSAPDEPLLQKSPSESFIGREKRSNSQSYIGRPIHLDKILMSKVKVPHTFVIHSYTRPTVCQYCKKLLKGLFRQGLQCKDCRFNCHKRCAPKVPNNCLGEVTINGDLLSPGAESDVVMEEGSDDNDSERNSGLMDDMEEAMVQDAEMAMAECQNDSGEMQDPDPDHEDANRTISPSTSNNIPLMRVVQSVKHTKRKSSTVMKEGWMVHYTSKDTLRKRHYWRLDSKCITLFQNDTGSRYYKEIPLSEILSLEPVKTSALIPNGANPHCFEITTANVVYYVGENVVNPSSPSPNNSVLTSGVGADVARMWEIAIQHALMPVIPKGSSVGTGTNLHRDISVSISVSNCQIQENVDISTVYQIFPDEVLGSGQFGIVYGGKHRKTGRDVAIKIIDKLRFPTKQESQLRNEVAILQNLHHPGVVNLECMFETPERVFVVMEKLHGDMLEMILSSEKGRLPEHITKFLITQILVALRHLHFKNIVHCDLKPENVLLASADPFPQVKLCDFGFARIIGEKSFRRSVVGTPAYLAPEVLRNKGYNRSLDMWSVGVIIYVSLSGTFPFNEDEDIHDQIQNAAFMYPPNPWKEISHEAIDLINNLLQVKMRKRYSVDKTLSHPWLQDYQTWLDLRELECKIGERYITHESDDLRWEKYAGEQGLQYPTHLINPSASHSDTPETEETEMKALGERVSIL
INS promoter inh cell count: further read-out of INS promoter inh, marked with its call; normalized cell count, %; measured here: cell count, toxicity; reference of the scale not given here;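 cells exposed to compound for 48 h; stained nuclei by imaging scaled within each plate; lower means fewer cells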
HSV replic up primary fold: recorded beside HSV replic up, whose call it bears; fold increase; compound at 10 µM; measured here: primary screen fold increase 10 uM; tested in PC3 cells;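 GFP signal in the first replicate; 1 = infected wells without compound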
The depositor's hits bear a star; i = inactive; ? = inconclusive; . = not tested or not shown. These rows are one share of the data. The share of hits here may be higher or lower than overall.

no.	SMILES	GALR2 agonist	INS promoter inh	INS promoter inh cell count	HSV replic up	HSV replic up primary fold	RGS16-Gao HTS	PKD1 kinase inh
1	Cc1ccc[n+](CC(O)Cn2c3ccccc3c3ccccc32)c1 (stereo not drawn)	-1.5	-106	51	i	1	108	7
2	C=CCN1C(=O)CSc2ccc(C(=O)N3CCC4(CC3)OCCO4)cc21	-0.2	-27	112	i	1.2	99	-40
3	O=c1[nH]c(=O)n(-c2ccccc2)c(O)c1C=NC12CN3CN(CN(C3)C1)C2	.	.	.	i	0.76	112	-2
4	O=C1c2ccccc2C(=O)N1Cc1nc2ccccc2c(=O)n1-c1ccc(Br)cn1	-1.9	33	110	i	0.99	91	-13
5	Cc1cc(C)cc(N2C(=O)/C(=C\c3ccc(N4CCN(C)CC4)o3)C(=O)NC2=S)c1	.	.	.	?	.	107	.
6	c1ccc(CCn2nnnc2CN2CCC(n3nnc4ccccc43)CC2)cc1	-0.9	34	125	i	0.85	434	-3
7	COc1ccc(Cn2c(N)c(C(=O)NCc3ccco3)c3nc4ccccc4nc32)cc1	13*	7	140	.	.	107	6
8	Cc1ccnc(-n2c(-c3ccco3)nc3ccccc3c2=O)c1	-1.7	-5	84	i	1	108	-6
9	COC(=O)[C@@H]1C[C@H]1[C@@H](NP(=O)(c1ccccc1)c1ccccc1)c1ccccc1	-1.7	-29	105	i	0.96	106	-5
10	CCCCCSc1cc(OC)c(CCN)cc1OC	0.2	.	.	i	0.72	103	11
11	Cc1cccc(-n2c(O)c(C=NCc3cccnc3)c(=O)[nH]c2=O)c1C	-0.8	0	155	i	1	112	-22
12	CCC(=NCCc1c[nH]c2ccccc12)c1c(O)n(C)c(=O)n(C)c1=O	-1.0	73	122	i	0.7	100	-3
13	O=c1[nH]c(=O)n(CCc2ccc(F)cc2)c(O)c1/C=N/N1CCCCC1	.	.	.	i	0.9	110	.
14	Cc1ccccc1NP(=O)(Oc1ccccc1F)Oc1ccccc1F	-0.7	22	78	i	1.1	11	18
15	Cc1ccccc1C1=NCC(=O)N(CC(=O)NCc2ccco2)c2sc3c(c21)CCCC3	-1.2	16	91	i	0.94	98	-6
16	COc1ccc(C2(C#N)CC[N+](C)(C)CC2)cc1	-1.4	.	.	.	.	103	-7
17	O=C1NC(=S)NC(=O)C1=Cc1cccc2cc3ccccc3cc12	.	.	.	i	0.81	84	.
18	CC(C)c1ccc(N2C(=O)NC(=O)/C(=C/c3cnc(-c4ccccc4)nc3)C2=O)cc1	1.2	.	.	?	.	102	-5
19	Oc1cccc2nc3ccccc3nc12	.	.	.	i	0.84	105	.
20	O=c1[nH]c2c(c(=O)n1C1CCCCC1)CCC2	-2.2	31	136	i	1	103	-8
21	CCCNC(=O)c1c(N)n(CC2CCCO2)c2nc3ccccc3nc12 (stereo not drawn)	7.8	.	.	i	0.95	101	-4
22	OC1/C(=C/c2ccccc2F)N2CCC1CC2 (stereo not drawn)	.	-25	73	i	0.95	106	-9
23	N#CC1=C(N)Oc2c(c(=O)sc3ccccc23)C1c1ccncc1 (stereo not drawn)	.	-43	83	i	0.81	107	4
24	CCOc1cc2[nH]c(=S)n(CCCC(=O)N3CCC4(CC3)OCCO4)c(=O)c2cc1OCC	-1.8	-120	94	i	1	96	-6
25	CCOc1ccc(CN(CCCl)CCCl)cc1C(=O)OC	-0.5	13	150	i	1	104	-3
26	O=C1NC(=O)N(Cc2ccccc2)C(=O)/C1=C\C=C\c1ccco1	.	.	.	?	.	94	3
27	CN1C(=O)C(=Cc2c(OCc3cnc(Cl)s3)ccc3ccccc23)C(=O)N(C)C1=O	.	.	.	i	1	99	-2
28	O=C1NC(=O)N(c2ccc3c(c2)OCO3)C(=O)/C1=C\c1ccc(-c2ccccc2C(=O)O)o1	.	.	.	.	.	87	.
29	Cc1cccc(C(=O)NC(Oc2ccccc2)C(Cl)(Cl)Cl)c1 (stereo not drawn)	-2.1	-55	108	i	0.97	98	-4
30	O=C(CN1CC(c2ccccc2)CC1=O)Nc1ccccc1 (stereo not drawn)	0.1	.	.	i	0.98	123	-3
31	O=C(Cn1nc(Cc2cccnc2)c2ccccc2c1=O)N1CCC2(CC1)OCCO2	-1.4	11	126	i	1	104	4
32	O=C(/C=C/c1ccccc1)c1c(O)n(CCc2ccccc2)c(=O)[nH]c1=O	-1.2	.	.	i	0.73	102	2
33	CC1(C)CC(=O)C(C=NCCN2CCN(C(=O)Cc3ccc(F)cc3)CC2)=C(O)C1	-0.1	.	.	i	0.98	95	-8
34	O=c1[nH]c(O)c(C=Nc2ccccc2Oc2ccccc2)c(=O)[nH]1	.	.	.	i	1	97	.
35	CN(C)C(=O)Oc1ccc(-c2nnco2)cc1	-4.2	.	.	i	0.96	86	-10
36	CCN1CCN(Cc2ccc(C)cc2)CC1	-2.3	-39	127	i	0.88	103	-8
37	Cc1ccc(Cc2c(C)nc3nc(SCC(=O)N4CCC5(CC4)OCCO5)nn3c2C)cc1	-2.9	-125	96	i	0.93	102	-7
38	CC1CCN(c2cc(Br)c([N+](=O)[O-])cc2F)CC1	.	.	.	i	0.82	96	.
39	CCc1ccc(CN2CCN(Cc3ccc(SC)cc3)CC2)cc1	.	50	63	i	0.97	118	2
40	CC(=O)Nc1ccccc1C(=O)OCC(=O)c1ccc2ccccc2c1	-1.3	.	.	i	0.76	109	-3

Among those listed so far, these contain an aryl methoxy group:
no.	SMILES	GALR2 agonist	INS promoter inh	INS promoter inh cell count	HSV replic up	HSV replic up primary fold	RGS16-Gao HTS	PKD1 kinase inh
7	COc1ccc(Cn2c(N)c(C(=O)NCc3ccco3)c3nc4ccccc4nc32)cc1	13*	7	140	.	.	107	6
10	CCCCCSc1cc(OC)c(CCN)cc1OC	0.2	.	.	i	0.72	103	11
16	COc1ccc(C2(C#N)CC[N+](C)(C)CC2)cc1	-1.4	.	.	.	.	103	-7

(next part)
no.	SMILES	GALR2 agonist	INS promoter inh	INS promoter inh cell count	HSV replic up	HSV replic up primary fold	RGS16-Gao HTS	PKD1 kinase inh
41	COc1ccc(CCN(C)Cc2ccc(F)cc2F)cc1OC	-1.2	-3	114	i	0.81	118	-1
42	CC(C)(C)NCC(O)c1cc(Cl)c(N)c(Cl)c1 (stereo not drawn)	-0.7	0	152	i	1.1	104	-5
43	C=CCN1C(=O)/C(=C/c2ccc(N3CCOCC3)o2)C(=O)NC1=S	-1.4	-3	57	?	.	68	-14
44	Cc1cc(OCC(=O)O)c2c3c(c(=O)oc2c1)CCCC3	-2.0	-454	58	i	0.91	98	11
45	O=C(c1ccccc1F)c1cn(CC(=O)N2CCOCC2)c2ccccc12	-2.0	-43	136	i	0.95	99	-2
46	CCOC(=O)C(O)(c1ccc(NC(=O)Oc2ccccc2)cc1)C(F)(F)F (stereo not drawn)	0.8	3	82	i	1.1	101	7
47	O=c1c(C=NCCN2CCNCC2)c(O)n(C2CCCCC2)c(=O)n1C1CCCCC1	-1.2	-12	110	i	0.87	103	-3
48	COC(=O)NC(=C(Cl)Cl)P(=O)(c1ccccc1)c1ccccc1	.	.	.	i	1.1	101	.
49	CC1(c2ccc(Cl)cc2Cl)OCC(Cn2cncn2)O1 (stereo not drawn)	.	.	.	i	0.96	91	-1
50	CC(=O)Nc1cccc([As](=O)(c2cccc(NC(C)=O)c2)c2cccc(NC(C)=O)c2)c1	.	.	.	i	1.1	99	.
51	CCCc1nc2ccccc2c(=O)n1-c1ccccc1OC	-0.5	-14	136	i	1	101	10
52	CCOC(=O)c1c(/N=C/c2c(O)n(-c3ccc(F)cc3)c(=S)[nH]c2=O)sc2c1CCCC2	-2.6	27	94	.	.	98	-11
53	CCS(=O)(=O)N1CCCC(C(=O)N2CCC3(CC2)OCCO3)C1 (stereo not drawn)	-2.2	-31	169	i	1	104	10
54	CC(C)N(CC(O)c1cccc([N+](=O)[O-])c1)C(C)C (stereo not drawn)	-0.2	-8	54	i	0.82	36	0
55	CC(C)(C)NC(=S)/N=C(\N)N[N+](=O)[O-]	.	.	.	i	0.98	102	-2
56	O=C1NC(=O)C(Cc2cccs2)C(=O)N1	-1.6	0	149	i	0.9	98	-10
57	O=c1[nH]c(=O)n(Cc2ccc(F)cc2)c(O)c1C=Nc1ccc(Cl)cc1	.	24	156	i	1.2	86	10
58	C=CCN(CC=C)Cc1c[nH]c2ccccc12	-1.2	.	.	i	1.2	107	1
59	COc1cc(/C=N/NC(=O)Cn2c([N+](=O)[O-])cnc2C)ccc1OC(=O)N(C)C	0.0	3	69	i	0.85	105	14
60	O=C1NC(=S)N(c2ccc(F)cc2)C(=O)/C1=C\c1ccoc1	.	40	90	i	1.1	74	-3
61	COc1cc2c(cc1OC)C(C(=O)NCCC(C)C)C1CCCCN1C2=O (stereo not drawn)	-1.2	50	123	i	0.88	100	14
62	Fc1ccc2c(c1)nnn2C1CCN(Cc2c(Cl)cccc2Cl)CC1	-0.5	-113	92	i	1.1	96	-5
63	CC(=O)N1CN2CN(C(C)=O)CC(C(=O)c3ccc(Br)cc3)(C2)C1	-4.8	54	149	i	1	93	9
64	O=c1[nH]c(O)c(N=Nc2cccc(S(=O)(=O)N3CCOCC3)c2)c(=O)[nH]1	.	0	112	i	1.1	98	3
65	COc1ccc(OC)c(C2=NOC(C(=O)N3CCC4(CC3)OCCO4)C2)c1 (stereo not drawn)	0.1	-4	133	i	0.94	102	0
66	Clc1ccc(OCC#CCN2CCOCC2)cc1	.	.	.	i	0.87	101	-4
67	NCC(CC(=O)O)c1ccc(Cl)cc1 (stereo not drawn)	-2.5	10	55	i	1.1	111	4
68	O=C(CNC(=O)c1ccccc1Cl)Nc1ccc(Br)cc1C(=O)c1ccccc1	-0.4	-14	94	i	0.98	108	-2
69	CCN(CC)S(=O)(=O)c1ccc(NN=C(C#N)C#N)cc1	-0.6	40	84	i	0.84	56	10
70	CCN(CC)CCCNC(=O)c1c(O)c2ccccc2n(Cc2ccccc2)c1=O	-0.4	-5	175	i	0.86	101	-1
71	COC(=O)N1CCN(C(=O)Cc2ccc(Cl)c(Cl)c2)C(CN2CCCC2)C1 (stereo not drawn)	.	.	.	i	0.76	101	.
72	Cc1nc2nc(SCC(=O)N3CCC4(CC3)OCCO4)nn2c(C)c1Cc1ccccc1	-1.4	-23	133	i	0.99	114	-6
73	COP(=O)(OC)/C(C=O)=N/Nc1ccc([N+](=O)[O-])cc1	.	.	.	i	1.1	90	3
74	CN1C(=O)C(=Cc2coc3ccccc3c2=O)C(=O)N(C)C1=O	.	.	.	i	1	109	.
75	COc1ccc(CCNCc2ccccc2F)cc1OC	-1.3	31	79	i	1.1	108	-4
76	N=Cc1c(O)n(-c2ccc(C34CC5CC(CC(C5)C3)C4)cc2)c(=O)[nH]c1=O	-1.0	.	.	i	0.83	96	-2
77	O=c1[nH]c(N2CCN(Cc3ccc4c(c3)OCO4)CC2)nc2c1CCC2	-4.9	-37	45	i	0.88	94	2
78	CCOP(=O)(OCC)/C(C#N)=C/c1ccc(Br)cc1	.	.	.	i	0.95	107	.
79	CCOC(=O)c1sc(/N=C/c2c(O)n(-c3cccc(C)c3)c(=O)[nH]c2=O)c(C#N)c1C	-1.0	.	.	i	1.2	99	12
80	CN1CCN(c2ncnc(Cl)c2N)CC1	.	-7	96	i	1.1	114	0
81	COc1ccc(CCn2c(O)c(C=NCCN3CCCCC3)c(=O)[nH]c2=O)cc1OC	-0.1	-41	119	i	0.85	108	3
82	CN1/C(=C\C=C2C(=O)NC(=S)NC2=O)C(C)(C)c2ccccc21	.	.	.	.	.	103	-13
83	CCOC(=O)N1CCC(NC(=O)CCc2nc(C3=CCN(C)CC3)no2)CC1	-2.8	-36	83	i	0.67	109	-7
84	CC12CN3CC(C)(CN(C1)C3c1cccs1)C2O (stereo not drawn)	-1.2	30	85	i	0.86	110	-7
85	COc1nc(NCC2CCCO2)nc(N2CC3CC(C2)c2cccc(=O)n2C3)n1 (stereo not drawn)	.	.	.	i	0.97	104	.
86	CCn1c(O)c(/C=N/N2CCOCC2)c(=O)n(CC)c1=S	-2.0	33	57	i	0.96	14*	-3
87	Cn1c(O)c(C(=O)c2ccccc2F)c(=O)n(C)c1=O	-1.0	29	85	i	1.2	104	2
88	O=C(c1ccc(Cl)cc1)C1CCCN(Cc2ccc3nonc3c2)C1 (stereo not drawn)	.	.	.	i	1.1	101	-4
89	O=C1C2CCCN2C(c2ccncc2)N1c1ccc(Cl)c(Cl)c1 (stereo not drawn)	-3.2	.	.	i	0.87	100	-3
